High-throughput results deposited in PubChem BioAssay by Sanford-Burnham Center for Chemical Genomics.
HNF4A DNA FP = change in binding of human HNF4A to DNA, primary screen, biochemical, fluorescence polarization, FITC-DNA. Hepatocyte nuclear factor 4-alpha (Homo sapiens), P41235. 1 h. activity change, % at 10 µM. hit rate 0.3% among 360,000; in the data active = activity change above about 30%, passing the limit was not always enough;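 also: controls were the assay level and a saturating level of protein; the project sought stronger binding though the title names inhibitors; some compounds called inactive have numbers as strong as hits; positive values seem to mean higher polarization but the record does not say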
Target sequence (P41235 whole entry, looked up): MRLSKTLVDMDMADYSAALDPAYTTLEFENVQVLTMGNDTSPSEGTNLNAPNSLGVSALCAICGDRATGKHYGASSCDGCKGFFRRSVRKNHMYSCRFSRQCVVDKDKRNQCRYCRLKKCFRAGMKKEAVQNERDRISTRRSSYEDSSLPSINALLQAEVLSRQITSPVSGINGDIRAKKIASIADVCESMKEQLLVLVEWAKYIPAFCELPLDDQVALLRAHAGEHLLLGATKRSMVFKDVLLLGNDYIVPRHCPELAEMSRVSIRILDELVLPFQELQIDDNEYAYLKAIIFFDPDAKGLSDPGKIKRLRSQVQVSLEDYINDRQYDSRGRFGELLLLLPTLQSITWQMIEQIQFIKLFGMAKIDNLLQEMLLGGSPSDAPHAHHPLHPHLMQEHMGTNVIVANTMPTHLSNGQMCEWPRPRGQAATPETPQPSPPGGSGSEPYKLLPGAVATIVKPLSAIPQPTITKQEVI
An asterisk follows results filed as active. The list is partial; the hit share may differ from the screen's.

SMILES	HNF4A DNA FP
COCCN1C[C@@H](CO)O[C@@H](n2cnc3c(N4CCN(CCO)CC4)ncnc32)C1	-4.1
CCc1nc2ccc(C(=O)N3CCN(C(C)=O)CC3)cn2c1N(CC)C(=O)NCCc1ccccc1	3.4
CCOC1=C2[C@H]([C@H]3C(=O)N(c4ccccc4)C(=O)[C@H]3C1)[C@@H](C(C)C)N(S(=O)(=O)c1ccc(C)cc1)[C@H]2c1ccccc1	-7.4
COc1ccc(-n2nnnc2C2(C)CCC(=O)N2Cc2ccccc2)cc1 (stereo not given)	3.1
Cc1nc2c(OCc3ccc(Cl)cc3Cl)cccn2c1N(C)CC1CC1	0.0
CCN(CC)C(=O)c1cccc(-c2csc(C(O)c3ccc(F)cc3)n2)c1 (stereo not given)	1.3
CC1(C(=O)NS(=O)(=O)c2ccccc2Cl)CCN1C(=O)CC1CCCC1 (stereo not given)	3.5
CC(=O)c1cccc(-c2ccnc3c2CC(C(=O)Nc2ccc(Cl)cc2)O3)c1 (stereo not given)	8.3
CCCNC(=O)N[C@H]1CC[C@@H](CCn2cc(-c3cccc(F)c3)nn2)O[C@@H]1CO	4.8
CN(C)c1ccc(-c2ccnc3c2CC(C)(C(=O)NCc2cccc(Cl)c2)O3)cc1 (stereo not given)	-0.4
COCCN1C[C@@H](CO)O[C@@H](n2cnc3c(NCc4cc(OC)c(OC)c(OC)c4)ncnc32)C1	3.2
OC(c1ccc(Cl)c(F)c1)c1ncc(-c2ccccc2Cl)[nH]1 (stereo not given)	1.9
CC(=O)NC(c1ccccc1)c1nc(-c2cccc(C(C)C)c2)cs1 (stereo not given)	4.8
CCCNC(=O)c1cc(C2CCCCN2C(=O)c2ccc(C(C)C)cc2)on1 (stereo not given)	1.9
CCCCc1c(-c2ccccc2OC)ncn1C1CCCC1	-1.3
COc1ccccc1CNc1nc(NCc2ccccc2F)c2sccc2n1	0.4
CCCCOCCCNC(=O)C[C@@H]1C[C@@]2(C(=O)OC)CCCCC=C2N(Cc2ccc(Cl)cc2Cl)C1=O	3.0
CC1(C)OC(=O)C2=C(C[C@@H](C3CC3)O[C@@H]2C2CC2)O1	-2.6
CO[C@H]1CN(C)C(=O)c2cc(NC(=O)c3cc(C)on3)ccc2OC[C@@H](C)N(C(=O)C2CC2)C[C@H]1C	3.3
OC[C@@H]1CN(Cc2ccc(-c3ccccc3)cc2)C[C@H](n2cnc3c(N4CCOCC4)ncnc32)O1	1.1
COc1ccccc1-c1cn(CC[C@H]2CC[C@@H](NS(=O)(=O)c3ccccc3C)[C@@H](CO)O2)nn1	1.4
CCOc1ccc(CCN2C(=O)C(=O)N([C@@H](Cc3ccc(O)cc3)CN3CCC[C@H]3CN3C(=O)C(=O)NC[C@@H]3Cc3ccc(O)cc3)C[C@@H]2Cc2ccccc2)cc1	-3.2
CC1(C(=O)NCc2cccc3ccccc23)CCN1C(=O)C1(c2ccccc2)CC1 (stereo not given)	1.2
CCc1nc2c(OCc3ccccc3C(=O)OC)cccn2c1N(C)C(=O)Nc1ccccc1OC	2.7
CCCCn1nnnc1C(CCSC)N1CCN(C/C=C/c2ccccc2)CC1 (stereo not given)	1.4
SMILES	HNF4A DNA FP
CC(C)(C)OC(=O)N1CCC[C@H]1C(=O)NCc1ccc(F)cc1F	3.3
COc1ccc(OC)c(CN2C(=O)CN(S(C)(=O)=O)CC2(C)C(=O)NC(C)C)c1 (stereo not given)	-0.2
CC(=O)Nc1ccc(S(=O)(=O)N2CCN(c3ccc(C(C)=O)cc3)CC2)cc1	-3.8
O=C(NCc1ccc(F)cc1)c1cc(C2CCCCN2C(=O)CCc2ccccc2)on1 (stereo not given)	-3.7
C=C(C)[C@@H]1C2=CC(C(=O)OC)=C(C[C@H](C(=C)C)[C@H]3O[C@H]3C3=C[C@H]1OC3=O)O2	3.0
CC1(C(=O)NCc2ccc3c(c2)OCO3)CCN1C(=O)CCc1ccc(Cl)cc1Cl (stereo not given)	3.5
CCc1nc2c(OCc3ccccc3C(=O)OC)cccn2c1N(C)C(=O)c1cccc(OC)c1	-1.9
COC(=O)[C@]12CCCCC=C1N(Cc1ccc(Cl)cc1Cl)C(=O)[C@H](CC(=O)NCCCCc1ccccc1)C2	-3.3
CCCCC(=O)N(C)c1c(CC)nc2c(OCCC3CCCCC3)cccn12	6.7
COc1ccccc1-c1ccc([C@@H]2C[C@H]3[C@@H](CN2)CON3C)cc1	3.8
CCCCCCN1C[C@@H](O)[C@H](n2cc(COC(=O)c3ccccc3)nn2)C[C@@H]1c1ccccc1	3.4
CCc1nc2c(OCC(=O)c3ccc(F)cc3)cccn2c1N(C)C(=O)c1ccccc1F	2.3
CC(C)CN1CCC1(C)C(=O)Nc1cc(-c2ccccc2)nn1C (stereo not given)	1.4
COc1cccc(Cn2cnc(-c3ccccc3OC)c2-c2cccs2)c1	3.9
CC1(C(=O)NS(=O)(=O)c2ccc(Br)cc2)CCN1C(=O)C/C=C/c1ccccc1 (stereo not given)	28
CC(C)C[C@@H](CN1CCC[C@H]1CN1C(=O)C(=O)NC[C@@H]1Cc1ccc(O)cc1)N1C[C@H](Cc2ccccc2)N(CCc2ccccc2)C(=O)C1=O	3.2
CC1Cc2[nH][nH]c(=O)c2C(C2CCCC2)O1 (stereo not given)	4.4
CCOC(=O)C1(C)CCCN(C(=O)c2ccc3c(c2)OCO3)C1 (stereo not given)	-1.2
COc1ccc(C(O)c2nc(-c3cccc(C(=O)O)c3)cs2)cc1 (stereo not given)	0.6
CCc1ccc(C(O)c2ncc(-c3ccc(C)cc3)[nH]2)cc1 (stereo not given)	-5.8
O=C(Nc1ccccc1)OC[C@@H]1C=CS(=O)(=O)N1Cc1ccc(Br)cc1	2.1
C[C@H](CO)N1C[C@H](C)[C@@H](CN(C)Cc2cccc(O)c2)OCc2cnnn2CCCC1=O	6.0
Cc1cc(F)ccc1C(O)c1ncc(-c2cccc3ccccc23)[nH]1 (stereo not given)	0.7
CC(C)NC(=O)c1cccc2c(-c3ccc(F)c(F)c3)coc12	-0.8
FC(F)(F)c1ccccc1Cc1c(-c2cccc(Cl)c2)nc2ccc(Br)cn12	1.6
SMILES	HNF4A DNA FP
COC(=O)[C@@]12C[C@@H](CC(=O)NCc3ccc(OC)c(OC)c3)C(=O)N(Cc3cccc4ccccc34)C1=CCC(C)(C)C2	0.2
Cc1ccc(S(=O)(=O)N2CCC(=O)N([C@H](COCc3ccc(Cl)cc3Cl)Cc3ccccc3)CC2)cc1	-0.2
O=C(NCc1nnnn1-c1ccc(Cl)cc1)c1ccc([N+](=O)[O-])o1	2.5
COc1ccc(CCNC(=O)Nc2ccc3c(c2)c(=O)n(C)n3Cc2ccc(Cl)cc2)cc1OC	-1.8
CCOC(=O)[C@]12CCC=C1N(CCC1=CCCCC1)C(=O)[C@H](CC(=O)NCc1cccs1)C2	3.2
c1ccc(C[C@H]2COc3c4ccccc4nn32)cc1	-1.3
COC(=O)C[C@@H]1CC[C@H](NC(=O)Nc2ccc(OC)cc2)[C@@H](CO)O1	2.6
O=C(c1cc(C2CCCCN2S(=O)(=O)c2cccs2)on1)N1CCOCC1 (stereo not given)	-0.5
Clc1cccc(-c2cc3nc(NCCOc4ccccc4)ccn3n2)c1	2.0
COc1ccc(-c2ccccc2)cc1NC(=O)[C@@H]1O[C@H](CO)[C@@H](O)[C@H]1O	-2.0
Cc1ccc(S(=O)(=O)N2[C@H](CC(=O)Oc3ccccc3)OC[C@@H]2C(C)C)cc1	2.1
COC(=O)[C@]12CCCCC=C1N(Cc1ccc3c(c1)OCO3)C(=O)[C@H](CC(=O)NCc1ccccc1)C2	7.8
CCC(c1nnnn1-c1ccc2c(c1)OCCO2)N1CCN(c2cccc(C)c2C)CC1 (stereo not given)	-0.8
COc1ccc(-c2nc3cc(C)c(Br)c(C)n3c2Cc2ccsc2)cc1OC	6.8
NCc1csc(NC(=O)Nc2cccc(Cl)c2)n1	-0.2
CN(C)C(=O)c1ccc(Cc2cn(C)c3ccccc23)nc1	-0.7
Cc1cc(F)cc(-c2cc(C(=O)NCc3ccc(C(F)(F)F)cc3)[nH]n2)c1	-0.3
c1ccc2c(C(c3nnnn3-c3ccc4c(c3)OCCO4)N3CCCC3)ccnc2c1 (stereo not given)	1.4
CC1(C(=O)NS(=O)(=O)c2ccc(F)cc2F)CCN1C(=O)c1ccccc1 (stereo not given)	1.8
Cc1ccc(F)c(S(=O)(=O)NC(=O)C2(C)CCN2C(=O)C/C=C/c2ccccc2)c1 (stereo not given)	-2.5
CCCC(=O)N1CCC1(C)C(=O)Nc1cccc(OC(C)C)c1 (stereo not given)	2.1
CC(C)c1ccc(C(=O)N2CCCCC2c2cc(C(=O)Nc3ccncc3)no2)cc1 (stereo not given)	-3.2
CCOc1ccc(S(=O)(=O)Nc2ccc(C(=O)N(CC)CC(=O)NCc3cccs3)cc2)cc1	0.6
c1ccc(C[C@H]2CN=C(Nc3ccccc3)N2CC2CCCC2)cc1	-1.1
COC(=O)[C@@]1(Cc2ccc(F)cc2)[C@H]2c3cc(C(=O)N(C)C)n(CCO)c3C[C@H]2CN1C(=O)c1ccccc1	-1.0
SMILES	HNF4A DNA FP
NS(=O)(=O)c1ccc(NC(=O)CCC(=O)O)cc1	3.7
Cc1cc(C(=O)N2CCC2(C)C(=O)Nc2cccc3ccccc23)nn1C (stereo not given)	-1.3
CCc1nc2ccc(C(=O)N(CC)CCN(C)C)cn2c1N(C)Cc1nccs1	2.1
Cc1ccc(S(=O)(=O)N[C@H](CNCc2ccccc2)C(C)C)cc1	-8.2
Cc1nc(C(F)(F)F)ccc1C(=O)N1CCC1(C)C(=O)NS(=O)(=O)c1ccc(C(C)(C)C)cc1 (stereo not given)	-7.8
CCCCN(C)c1c(C)nc2ccc(C(=O)N(CC)CCN(C)C)cn12	0.3
CO[C@H]1CN(C)C(=O)c2ccc(NS(=O)(=O)c3ccccc3F)cc2OC[C@H](C)NC[C@@H]1C	0.5
CC(=NNC1=NCCN1)c1cn(C2=NCCN2)nc1C	3.2
CCOc1ccc(CCN2C(=S)N([C@@H](CC(C)C)CN3CCC[C@@H]3CN3C(=S)NC[C@@H]3Cc3ccc(O)cc3)C[C@@H]2Cc2ccc(O)cc2)cc1	5.0
CCOC(=O)C1=CCN(S(=O)(=O)c2ccccc2C)C1c1cccc(Cl)c1 (stereo not given)	-4.7
COc1ccccc1Cc1c(C2CCCCC2)nc2ccc(C)cn12	2.6
CCC(c1nc2ccccc2[nH]1)N(C(=O)Cc1cc(OC)cc(OC)c1)c1ccc(N2CCOCC2)cc1 (stereo not given)	3.3
CCOC(=O)C1(C)CCN1C(=O)c1ccccc1 (stereo not given)	-2.1
CN(C)CCNc1ncnc2c1ncn2[C@H]1CN(Cc2ccco2)C[C@@H](CO)O1	1.3
O=C(c1cccc(-c2cncc3nccn23)c1)N1CCOCC1	-3.0
O=C(c1ccccc1)N(CCCn1ccnc1)C(c1ccccc1)c1nc2ccccc2[nH]1 (stereo not given)	2.6
CC1(C(=O)Nc2cnc3ccccc3c2)CCN1Cc1ccc(-c2ccccc2)o1 (stereo not given)	2.0
CC(=O)c1ccc(OC2(C)CCN(Cc3ccc(C)cc3)C2)cc1 (stereo not given)	-1.1
CC1(C(=O)Nc2ccc3c(c2)OCCO3)CCC(=O)N1CC(F)(F)F (stereo not given)	0.1
CC(C)c1ccc(NC(=O)Nc2nnc([C@@H]3C[C@H](O)[C@@H](CO)O3)s2)cc1	4.4
Cc1cccc(S(=O)(=O)NC(=O)C2(C)CCN2C(=O)C2(c3ccc(Cl)cc3)CCC2)c1 (stereo not given)	-0.5
O=C(C(=O)N1CCN(c2ccccc2)CC1)c1ccccc1	3.1
O=S1(=O)CC(N2CCC(Cc3ccccc3)CC2)CN1CCc1ccccc1 (stereo not given)	-1.7
COc1ccc(C(C)(O)c2nc(-c3cc(F)cc(F)c3)cs2)cc1 (stereo not given)	-2.2
C[C@H]1CN([C@@H](C)CO)C(=O)c2cc(C#CCC3CCCC3)cnc2O[C@@H]1CN(C)C(=O)CC1CC1	2.6

Ordered by molar mass (lowest first): part of the list above
SMILES	HNF4A DNA FP
CCOC(=O)C1(C)CCN1C(=O)c1ccccc1 (stereo not given)	-2.1
NS(=O)(=O)c1ccc(NC(=O)CCC(=O)O)cc1	3.7
CC(=NNC1=NCCN1)c1cn(C2=NCCN2)nc1C	3.2
O=C(C(=O)N1CCN(c2ccccc2)CC1)c1ccccc1	3.1
O=C(c1cccc(-c2cncc3nccn23)c1)N1CCOCC1	-3.0
Cc1ccc(S(=O)(=O)N[C@H](CNCc2ccccc2)C(C)C)cc1	-8.2
COc1ccc(C(C)(O)c2nc(-c3cc(F)cc(F)c3)cs2)cc1 (stereo not given)	-2.2
CC1(C(=O)Nc2cnc3ccccc3c2)CCN1Cc1ccc(-c2ccccc2)o1 (stereo not given)	2.0
CCc1nc2ccc(C(=O)N(CC)CCN(C)C)cn2c1N(C)Cc1nccs1	2.1
Cc1cccc(S(=O)(=O)NC(=O)C2(C)CCN2C(=O)C2(c3ccc(Cl)cc3)CCC2)c1 (stereo not given)	-0.5
CO[C@H]1CN(C)C(=O)c2ccc(NS(=O)(=O)c3ccccc3F)cc2OC[C@H](C)NC[C@@H]1C	0.5
C[C@H]1CN([C@@H](C)CO)C(=O)c2cc(C#CCC3CCCC3)cnc2O[C@@H]1CN(C)C(=O)CC1CC1	2.6
CCC(c1nc2ccccc2[nH]1)N(C(=O)Cc1cc(OC)cc(OC)c1)c1ccc(N2CCOCC2)cc1 (stereo not given)	3.3

Other records:
SMILES	HNF4A DNA FP
CCCC(=O)N1CCOCC1c1cc(C(=O)NCc2ccccc2)no1 (stereo not given)	1.2
Cc1cc(C)c2c(CN3CCN(c4ccccc4F)CC3)cc(=O)oc2c1	-1.6
COc1ncccc1-c1cnc2cccnn12	3.0
COC(=O)[C@@]12C[C@@H](CC(=O)NCc3cccs3)C(=O)N(Cc3cccc4ccccc34)C1=CCC(C)(C)C2	-2.5
COCCNC(=O)C1(C)CCCN(Cc2ccc(Cl)c(Cl)c2)C1 (stereo not given)	-2.5
CC(=O)NC(C)(c1ccccc1)c1nc(-c2cc(F)cc(F)c2)cs1 (stereo not given)	-0.9
CCOC(=O)C1=CCN(S(=O)(=O)c2cccc(Cl)c2)C1c1cccc(F)c1 (stereo not given)	-0.8
